Vif A3G: inhibitors of Vif binding to APOBEC3G peptide, primary screen, biochemical, TR-FRET, GST-Vif 1-94, biotin-A3G peptide, dose response retest (AID 1117319) | Virion infectivity factor (Human immunodeficiency virus type 1 group M subtype B (isolate … | TR-FRET GST-Vif / biotin-A3G peptide binding; higher % means a stronger effect; test concentration not given here; strong numbers were not always called active | 0.57% of 260,000 active | one-dose inhibition, %; IC50 in µM for titrated hits;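 active = above the screen mean plus three standard deviations and confirmed in dose response; inconclusive = results disagree or hit not tested in dose response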;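 also: Vif residues 1-94 fused to GST binding biotinylated APOBEC3G peptide 110-148; 0% = full assay without inhibitor and 100% = GST in place of GST-Vif; retest series ran down from 100 µM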
Ecoli rRNA inh: reduced GFP signal of wild-type E. coli, primary screen, bacterial rRNA inhibitor project, GFP/RFP fluorescence, OD600, single point | E. coli WT GFP vs humanized-ribosome RFP mutants, 24 h; active compounds read low; DMSO median 0, no signal -100 | GFP signal change (wild-type ribosome), % (no concentration beside the values) | 1.6% of 350,000 active;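 active = significant combined selectivity score with lowered wild-type GFP, culture density cut under 30%, mutant RFP and density less affected; inactive = any of these conditions unmet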; also: one replicate is shown; some compounds called inactive have numbers as strong as hits
T cruzi inh: inhibitors of intracellular T. cruzi growth, primary screen, luminescence, NIH3T3 host cells; 1.4% of 300,000 active; T. cruzi beta-gal in NIH3T3, 90 h; AID 1885, 2009; inhibition, % (test concentration not listed);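 active = mean inhibition across valid replicates above about 55%, limit read from the data; inconclusive = mean below that limit but half or more replicates reach it; inactive = mean below it, under half of replicates reach it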;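 also: signal also drops with host cell toxicity which is not excluded here; 0% = plate median of DMSO wells and 100% = zero luminescence signal; higher percent means less beta-gal luminescence so fewer parasites; stock transfer was 50 nL into about 50 µL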
AF4-AF9 inh: inhibitors of AF4 peptide binding to AF9, primary screen, biochemical, AlphaScreen, biotin-AF4 peptide, FLAG-AF9, single point | Protein AF-9 (Homo sapiens), P42568 | AID 651704, 2012 | inhibition, % at 10 µM | 0.47% of 350,000 active;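 active = every replicate reaching a set inhibition limit, whatever the replicate mean, cut at about 25% in these data; inconclusive = mean inhibition reaches that limit but some replicates miss it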;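 also: 0% = plate neutral control median and 100% = total signal loss; the record names both 10 and 1 µM as test concentration; the first replicate is given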
Target sequence (P42568 whole entry, looked up): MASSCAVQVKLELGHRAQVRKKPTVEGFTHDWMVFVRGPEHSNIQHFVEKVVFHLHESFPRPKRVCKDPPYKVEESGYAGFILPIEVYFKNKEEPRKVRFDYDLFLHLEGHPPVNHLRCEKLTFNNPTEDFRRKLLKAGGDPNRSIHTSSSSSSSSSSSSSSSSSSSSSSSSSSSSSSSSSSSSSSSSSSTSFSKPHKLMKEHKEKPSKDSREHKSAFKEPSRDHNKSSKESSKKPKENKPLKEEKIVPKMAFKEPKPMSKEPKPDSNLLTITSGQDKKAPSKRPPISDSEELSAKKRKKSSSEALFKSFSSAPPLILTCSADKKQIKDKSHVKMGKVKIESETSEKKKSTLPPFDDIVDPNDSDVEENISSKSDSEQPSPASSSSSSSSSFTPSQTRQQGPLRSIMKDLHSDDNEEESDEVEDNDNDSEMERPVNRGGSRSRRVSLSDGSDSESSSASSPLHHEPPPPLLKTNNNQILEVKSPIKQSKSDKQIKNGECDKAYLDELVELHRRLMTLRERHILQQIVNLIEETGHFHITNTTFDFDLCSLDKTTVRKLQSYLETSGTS
RanGTP-Impb inh: inhibitors of RanGTP-importin-beta interaction, primary screen, biochemical, FRET, CFP-Ran, YFP-importin-beta, homogeneous; Ran GTPase (GTP-bound) - importin-beta complex; inhibition, % (concentration not given with the values); cell-free CFP-Ran/YFP-importin-beta FRET ratio; AID 2216, 2009; 1.1% of 300,000 active;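 active = most replicates above 15%; inconclusive = exactly half above 15%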;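 also: 0% = DMSO wells and 100% = Ran loaded with GDP instead of GTP; wells of about 40 µL received 100 nL stock; the first replicate is given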
Bfl-1 A1 inh: caspase 3/7 activation in MEF A1-2A-BIM cells, primary screen, A1 inhibitor project, cell-based, luminescence, HTS. 0.066% of 330,000 active. caspase activation, % (test concentration not listed). Caspase-Glo 3/7 luminescence, 3 h; percent of clofoctol response, vehicle zero;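 active = over half of replicate activation scores above 10%, or exactly half above 10 with the replicate mean above 10; inconclusive = replicate mean below 10 yet half the replicates above 10; inactive = over half of replicates below 10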;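 also: wells of about 30 µL received 50 nL stock; many hits fall short of the cut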
Beta apoptosis: inhibitors of cytokine-induced beta cell apoptosis, primary screen, luminescence; INS-1E cytokine-induced death, ATP luminescence, 48 h; percent of positive-control rescue, neutral wells zero; protection from apoptosis, % (concentration not given with the values); 0.8% of 300,000 active;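 active = all replicates at 75% or more, or half of them and the mean; inconclusive = half reach 75% but not the mean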;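 also: 0% = cytokine-treated negative control wells and 100% = positive control rescue; higher means more ATP so stronger rescue from cytokine killing; wells of about 40 µL received 100 nL stock; the first replicate is given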
Calb FLC: C. albicans growth inhibition with fluconazole, primary screen, CaCi-2 strain, Alamar Blue fluorescence; C. albicans CaCi-2 (fluconazole-resistant clinical isolate) + fluconazole, 48 h; growth inhibition, % (no concentration beside the values); 0.57% of 300,000 active; AID 1979, 2009;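 active = most replicates above 75%; inconclusive = exactly half above 75%; inactive = most below 75%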;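 also: all wells also contain fluconazole at 8 µg/ml as a sub-toxic cotreatment; 0% = median of DMSO wells and 100% = median of geldanamycin control wells; wells of about 8 µL received 7.5 nL stock; the first replicate is given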
Ecoli rRNA inh OD600: further read-out of Ecoli rRNA inh, marked with its call; OD600 change, %; measured here: OD600 growth;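 optical density of the mix in the first replicate; 0 = DMSO median and -100 = no signal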
Ecoli rRNA inh RFP: further read-out of Ecoli rRNA inh, marked with its call; RFP signal change, %; measured here: RFP humanized mutant strains;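 first replicate; 0 = DMSO median and -100 = no signal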
* hit, by the source's call; ? = inconclusive; · = not tested or not shown; & = joins results of further samples. A portion of the library; count on the stated rates, not on these rows.

cpd	Molecule	Calb FLC	Ecoli rRNA inh	AF4-AF9 inh	Vif A3G	Bfl-1 A1 inh	Ecoli rRNA inh OD600	RanGTP-Impb inh	T cruzi inh	Ecoli rRNA inh RFP	Beta apoptosis
1	NS(=O)(=O)c1ccccc1NC(=S)Nc1ccccc1S(N)(=O)=O	-4	9	-13	-1%	0.4	-7	?	0	2.5	-8
2	O=S(=O)(c1ccccc1Cl)N1CCCC1c1nc(-c2ccc(Cl)cc2)no1 (centres undefined)	-8	·	·	?	0.8	·	?	9	·	7
3	COCCN1C=C(C(=O)OC)C(c2ccc(Cl)cc2)C(C(=O)OC)=C1	-8	22	-20	0%	0.2	21	41*	6	-0.5	-3
4	Cc1ccccc1NC(=O)Cc1nc(COC(=O)c2cc(Br)ccc2O)cs1	·	12	-1.0	-9%	0.5	10	·	·	3.0	-3
5	CCCCN(CC)CCNC(=O)c1nn(-c2ccc(OC)cc2)c(=O)c2c1c1ccccc1n2C	-9	-7	2.5	6%	-1.1	8	-1.4	57*	-1.3	-1
6	COc1ccc(C2C(C#N)=C(C)NC3=C2S(=O)(=O)c2ccccc23)cc1 (centres undefined)	-1	·	·	·	0.2	·	3.1	19	·	4
7	Cn1c(=O)c(C(=O)NCCCc2ccccc2)c(O)c2ccccc21	2	2	-8.4	·	0.3	-2	?	10	6.0	-7
8	COc1ccc2nc(NC(=O)c3ccc([N+](=O)[O-])o3)sc2c1	-8	2	-1.7	·	-7.4	2	-4.0	41	-1.2	·
9	COC(=O)c1sc(NC(=O)COc2ccc(C)cc2)nc1C	3	3	7.7	-4%	-0.3	10	-0.3	-2	-3.9	-2
10	COc1ccc(Oc2nc(-c3ccccn3)ncc2OC)cc1	-2	-28*	1.7	10%	0.5	-19*	-0.5	7	-5.7*	3
11	COc1ccc(OC)c(NC(=O)c2oc3ccccc3c2NC(=O)C2CC2)c1	-2	12	-0.3	1%	1.0	12	?	0	5.9	9
12	COc1ccc(C(=O)Nc2ccnn2C2CCN(Cc3cnn(C)c3)CC2)cc1	-3	5	-0.6	·	-0.2	3	3.9	28	-2.7	0
13	CCOC(=O)c1oc2cccc(O)c2c1CN1CCOCC1	1	·	·	-4%	-0.4	·	1.2	-8	·	0
14	C[C@@H](C(=O)NCc1ccccn1)[C@H]1C[C@]1(C)[C@H](NC(=O)OCc1ccccc1)c1ccccc1	6	-24	0.1	1%	-0.7	-42	-2.3	16	-2.8	11
15	O=C(COC(=O)c1n[nH]c2ccccc12)c1ccc(F)c(F)c1	-4	-11	-9.2	3%	0.1	-13	0.7	0	0.9	0
16	CC(=O)C[C@H]1c2cc(C(F)(F)F)ccc2S(=O)(=O)N1Cc1ccccc1	6	-16	0.7	·	0.8	-15	5.6	-3	-4.2	-8
17	Cc1nnc(NC2(C(F)(F)F)C(=O)Nc3c2c(=O)n(C)c(=O)n3C)s1 (centres undefined)	23	·	·	10%	-0.1	·	2.8	-15	·	·
18	Cc1ccc(OCCNC(=O)CNC(=O)c2ccc(C)c(C)c2)cc1	-6	-7	-0.7	8%	-0.7	-7	4.2	-3	-0.3	3
19	O=c1[nH]c(C(Cl)Cl)nc2sc3c(c12)CCN(Cc1ccccc1)C3	2	-11	-55	?	0.3	-3	37*	1	18	0
20	CC(C)[C@@H](N)C(=O)NCC1CCC(C(=O)N[C@@H](Cc2ccccc2)C(=O)O)CC1 (some centres undefined)	-6	22	-3.5	7%	0.5	15	-2.8	-20	5.9	-1

Next part; the last three above are carried over.
cpd	Molecule	Calb FLC	Ecoli rRNA inh	AF4-AF9 inh	Vif A3G	Bfl-1 A1 inh	Ecoli rRNA inh OD600	RanGTP-Impb inh	T cruzi inh	Ecoli rRNA inh RFP	Beta apoptosis
18	Cc1ccc(OCCNC(=O)CNC(=O)c2ccc(C)c(C)c2)cc1	-6	-7	-0.7	8%	-0.7	-7	4.2	-3	-0.3	3
19	O=c1[nH]c(C(Cl)Cl)nc2sc3c(c12)CCN(Cc1ccccc1)C3	2	-11	-55	?	0.3	-3	37*	1	18	0
20	CC(C)[C@@H](N)C(=O)NCC1CCC(C(=O)N[C@@H](Cc2ccccc2)C(=O)O)CC1 (some centres undefined)	-6	22	-3.5	7%	0.5	15	-2.8	-20	5.9	-1
21	CCC(C)[C@H](NS(=O)(=O)c1ccc(C)cc1)C(=O)N1CCC(C(=O)N2CCC(C(=O)OC)CC2)CC1 (some centres undefined)	-1	·	-0.3	·	0.2	·	0.4	32	·	3
22	Cn1c(=O)n(C/C=C/c2ccccc2)c(=O)c2c1nc1n2CCCN1c1ccc(F)cc1	5	·	·	-1%	-0.6	·	7.0	39	·	-5
23	CCCN1CCC(NC(=O)CC2C(=O)NCCN2Cc2cccc(OC)c2)CC1 (centres undefined)	-3	7	1.2	·	-0.6	16	-0.3	-8	1.0	2
24	CC(C)NC(=O)N(C)C[C@@H]1Oc2ccc(NC(=O)Nc3ccc(C(F)(F)F)cc3)cc2CC(=O)N([C@H](C)CO)C[C@@H]1C	·	4&-18	0.6	·	0.2	-8&-31	·	·	-1.9&-5.3	2
25	CCOC(=O)c1ccccc1-c1cn2cc(Cl)ccc2n1	-37	-1	0.8	·	-1.6	-4	3.0	4	0.1	-12
26	O=C(CCN1C(=O)COc2ccccc21)NCc1ccco1	9	·	·	6%	0.5	·	?	-17	·	-14
27	COc1ccc(/C=C\C(=O)c2c(O)ccc3c(C)cc(=O)oc23)cc1OC	8	·	-1.1	6%	0.9	·	-2.1	·	·	-6
28	COc1ccc(C)cc1NC(=O)CSCc1ccccc1C	-4	-22	1.1	3%	0.1	-23	1.6	-6	-15	-7
29	O=C(CN1CCN(Cc2ccccc2)CC1)N=Nc1c(O)[nH]c2ccccc12	-2	·	·	·	0.3	·	1.8	46	·	-2
30	COc1cc(Nc2c3ccccc3nc3ccccc23)cc(OC)c1OC	-2	-25	31*	-3%	?	-20	?	45	-6.0	38
31	COC(=O)C1=C(C(=O)OC)[C@@H]2N(C)c3ccc(OC)cc3[C@@]23C[C@@H](C(=O)OC)N(C(=O)c2cccs2)C3=N1	-4	·	·	·	0.2	·	-2.8	-6	·	-4
32	CCCCN(C)Cc1cc(=O)oc2cc3c(cc12)CCCC3	-3	-35	2.8	·	-0.2	-36	2.3	17	-7.9	9
33	O=C(CN1CCCC1)N/N=C/c1c(O)ccc2ccccc12	?	-2	38*	·	0.5	-12	5.5	34	-2.3	51
34	O=C(Nc1ccc2c(c1)OCO2)C1CCCN(c2nc3ccccc3s2)C1 (centres undefined)	-6	-4	-68	13%	-0.1	1	-5.5	11	-13	3
35	O=C(NCC(=O)N(c1ccc(F)cc1)C(C(=O)NC1CCCCC1)c1ccncc1)c1ccco1 (centres undefined)	3	2	-1.0	·	-0.2	19	-4.1	6	-0.4	-7
36	OCCOc1ccc(CN2CCCC(N3CCN(c4ccc(F)cc4)CC3)C2)cc1 (centres undefined)	-2	4	-2.1	·	0.1	10	-3.9	48	5.6	·
37	S=C1NCN(Cc2ccco2)CN1Cc1ccco1	3	·	-1.2	0%	-0.3	·	9.0	·	·	-2
38	CCn1c(-c2ccccc2)c(C(=O)CC#N)c2ccccc21	35	1	-1.3	-46%	-0.8	-4	-20	9	1.0	·
39	Cc1ccccc1N1CCN(C(=O)C2CCC(=O)N(C3CCCC3)C2)CC1 (centres undefined)	8	3	0.3	·	2.3	-5	?	-11	6.3	-3
40	CCOc1ccc(NS(=O)(=O)c2ccc3c(c2)n(C)c(=O)n3C)cc1	12	5	-0.5	1%	0.8	4	9.0	-18	0.8	5
41	CCCC(=O)NNC(=O)Nc1ccccc1	-17	10	2.9	83%	-0.3	-8	-2.7	-8	-7.7	-4
42	Cn1ccnc1SCC(=O)Nc1cccc(S(=O)(=O)N2CCCCCC2)c1	6	-6	2.4	2%	-0.4	-15	-1.3	-1	-3.1	-5
43	COc1ccccc1CC(=O)N1CCN(C(=O)c2ccco2)CC1	-6	22	-1.6	0%	1.4	19	1.3	-9	4.5	0
44	Cc1cc(C)n2nc(SCn3nnc4ccccc4c3=O)nc2n1	15	7	0.2	4%	0.4	6	2.2	32	-2.4	-1
45	O=C(Nc1cccc(NC(=O)c2ccccc2Cl)c1)c1ccc([N+](=O)[O-])o1	80*	-63	2.0	·	0.5	-75	4.7	29	-20	96*
46	COc1ccc(OCc2nnc(SCC(=O)Nc3nnc(C4CC4)s3)n2C)cc1	9	4	-1.9	·	0.0	5	0.3	-13	-3.4	-9
47	Cc1cc(C(=O)CSc2ccc(Cl)cc2)cc(C)c1OC(=S)N(C)C	0	·	·	-2%	0.2	·	-2.2	15	·	-11
48	CS(=O)(=O)N(CC(=O)N1CCCCCC1)c1cccc(F)c1	5	20	-1.9	·	1.2	8	1.1	8	2.4	-6
49	O=[N+]([O-])c1ccccc1CNc1ccc(F)c(Cl)c1	9	-54	6.0	·	0.6	-77	-4.6	-4	-29	-1
50	CN(C)c1ccc(/C=N/NC(=O)CNC(=O)c2ccc3c(c2)OCCO3)cc1	?	12	-0.2	7%	0.4	7	-0.8	-4	0.6	-7
51	Oc1ccc2ccccc2c1CNc1ccc(Br)cc1	-1	6	2.9	·	0.0	10	-0.6	6	7.6	-11
52	COC(=O)C1=C(C)N(C)C(=O)NC1c1ccc([N+](=O)[O-])o1 (centres undefined)	2	17	-1.0	6%	0.9	4	0.2	35	4.1	-7
53	CC(NC(=O)c1cccc(S(=O)(=O)N(C)C)c1)c1nc2ccccc2[nH]1 (centres undefined)	-5	8	2.5	·	0.0	3	-3.8	0	3.9	0
54	CC(=O)Nc1ccc(OC(F)(F)Cl)cc1	7	10	1.1	·	0.4	11	-4.2	1	1.8	-2
55	C=CCN(CC=C)Cc1c(C)[nH]c2c(C)c(C)ccc2c1=O	-17	26	-1.4	·	0.0	23	?	-5	1.6	-9
56	COc1ccc(OCc2nnc(SCC(=O)NC3CC4CCC3C4)o2)cc1 (centres undefined)	-3	2	-1.4	·	-0.5	2	4.7	-16	-1.7	-2

Source: PubChem
